RE007 growth inh: less growth of the S. pombe RE007 Vpr strain; S. pombe RE007 Vpr strain, BacTiter-Glo ATP luminescence, 24 h; control for the full effect not named in the record; Potency, µM (top dose mostly 92.2 µM), inactives show at the highest dose activity change, negative = less growth; actives 0.21% (n = 360,000); AID 651644; active = well fitted falling curve with a large enough effect; inconclusive = small, poorly fitted or top-dose-only effect; inactive = no such curve, though single readings can be large or run the other way;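 also: nearly all actives have a fitted effect of over 50% in size; the assay follows cell death caused by Vpr and the record does not say whether a fall means rescue or toxicity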
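Fission yeast strain RE007, carrying one chromosomally integrated HIV-1 vpr copy, was seeded at OD 0.01 in PMG+AL medium with 23 nL pinned compound. After 24 h at 30 °C and 99% humidity, viability was read by BacTiter-Glo luminescence.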
2A StopGo: lowers the luciferase signal of an FMDV 2A StopGo reporter. human cells with a luciferase reporter of 2A StopGo recoding; control for the full effect not named in the record. Potency, µM (highest dose often 57.9 µM), for the others: at the highest dose signal change, negative = less light. actives 1.2% (n = 410,000); active = well fitted falling curve with a large enough effect; inconclusive = small, poorly fitted or top-dose-only effect; inactive = no such curve, though single readings can be large or run the other way; tested in HEK293T cells; also: nearly all actives have a fitted effect of over 45% in size; luciferase light after 4 h
* marks the source's active call; other numbers are inactive results; [ ] = remark or other dose. % is scaled to controls: 0 for no effect and ±100 for the full control effect; potency is read from the fitted curve at half-maximal effect. Only part of the results is shown (hit frequency here may not be typical).

For C#CCOCCOCCOCCNc1nc(N2CCN(C(=O)[C@H](CO)n3cc([C@@H](N)C(C)C)nn3)CC2)nc(N2CCN(C(=O)[C@H](CO)n3cc([C@@H](N)C(C)C)nn3)CC2)n1 the results were RE007 growth inh 6.3% and 2A StopGo -0.9%.
`O=C(Nc1ccc2c(c1)OCCO2)C(c1ccnc2ccccc12)N1CCC(Cc2ccccc2)CC1` (stereo not given) gave RE007 growth inh -1.0% and 2A StopGo 8.7%.
Screening CCCCn1nnnc1C(c1ccnc2ccccc12)N1CCC2(CC1)C(=O)NCN2c1ccccc1 (stereo not given) returned RE007 growth inh -12.0% and 2A StopGo 4.6%.
`CNc1ccc(-c2ccccc2CO)cn1` gave RE007 growth inh -9.8% and 2A StopGo 5.1%.
Screening O=C(N1CCc2cc(S(=O)(=O)NC[C@H]3O[C@@H](n4ccc(=O)[nH]c4=O)[C@H](O)[C@@H]3O)ccc2C1)C(F)(F)F returned RE007 growth inh 5.1% and 2A StopGo -28.0%.
`O=C(NCc1cccs1)c1cc(-c2ccccc2)nn1CC1CC(c2cccnc2)=NO1` (stereo not given) gave RE007 growth inh -16.3% and 2A StopGo 10.2%.
`CCCCCc1ccc2cc(C#N)ccc2n1` gave RE007 growth inh -6.5% and 2A StopGo 20.7%.
`N#CC1(NC(=O)COC(=O)Cc2c[nH]c3ccccc23)CCCCC1` gave RE007 growth inh -11.9% and 2A StopGo -10.8%.
CC(=O)Nc1cccc(Nc2ccc(C#N)cc2)c1 was read as RE007 growth inh 3.0% and 2A StopGo 14.3%.
Screening Cc1oc(-c2cccs2)cc1C(=O)N1CCCC(C)(C(=O)O)C1 (stereo not given) returned RE007 growth inh 2.9% and 2A StopGo -11.5%.
Cc1cc(C)cc(Cn2cc(CN3CC(N4CCN(C)CC4)CS3(=O)=O)nn2)c1 (stereo not given) was read as RE007 growth inh -17.8% and 2A StopGo -4.0%.
`CCCCCCNC(=O)O[C@H]1C[C@H](C(=O)OC)[C@H](C(=O)OC)C2CN(S(=O)(=O)c3ccc(C)cc3)C[C@@]21O` (stereo not given in full) gave RE007 growth inh 14.3% and 2A StopGo -4.9%.
CC(=O)c1cc2c(cc1NC(=O)CSc1ncccn1)OCO2 was read as RE007 growth inh 3.0% and 2A StopGo -2.7%.
C[C@@H]1CCCCO[C@H](CN(C)S(=O)(=O)c2ccc(F)cc2)[C@@H](C)CN([C@H](C)CO)C(=O)c2cc(NC(=O)Nc3ccc(C(F)(F)F)cc3)ccc2O1 was read as RE007 growth inh 3.7% and 2A StopGo -21.6%.
For Cn1ccnc1-c1nnn(-c2ccc(Cl)c(Cl)c2)n1 the results were RE007 growth inh 2.4% and 2A StopGo -2.0%.

Brought forward from above: five entries, followed by the next part.
Cc1cc(C)cc(Cn2cc(CN3CC(N4CCN(C)CC4)CS3(=O)=O)nn2)c1 (stereo not given) was read as RE007 growth inh -17.8% and 2A StopGo -4.0%.
`CCCCCCNC(=O)O[C@H]1C[C@H](C(=O)OC)[C@H](C(=O)OC)C2CN(S(=O)(=O)c3ccc(C)cc3)C[C@@]21O` (stereo not given in full) gave RE007 growth inh 14.3% and 2A StopGo -4.9%.
CC(=O)c1cc2c(cc1NC(=O)CSc1ncccn1)OCO2 was read as RE007 growth inh 3.0% and 2A StopGo -2.7%.
C[C@@H]1CCCCO[C@H](CN(C)S(=O)(=O)c2ccc(F)cc2)[C@@H](C)CN([C@H](C)CO)C(=O)c2cc(NC(=O)Nc3ccc(C(F)(F)F)cc3)ccc2O1 was read as RE007 growth inh 3.7% and 2A StopGo -21.6%.
For Cn1ccnc1-c1nnn(-c2ccc(Cl)c(Cl)c2)n1 the results were RE007 growth inh 2.4% and 2A StopGo -2.0%.
Screening COc1ccc(-c2nn(-c3ccccc3)cc2CNC[C@H]2O[C@@H](n3cnc4c(=O)[nH]c(N)nc43)[C@H](O)[C@@H]2O)cc1 returned RE007 growth inh -9.1% and 2A StopGo -15.8%.
`COc1ccc(-c2ccc(CN3C(C)C(=O)N(Cc4cn(CCC5OCCCO5)nn4)CCS3(=O)=O)cc2)cc1` (stereo not given) gave RE007 growth inh 10.3% and 2A StopGo -22.8%.
c1ccc2c(c1)oc1c(-c3cccc4nccn34)cccc12 was read as RE007 growth inh inconclusive and 2A StopGo -24.6%.
`OC(c1cccc(Cl)c1)c1nc(-c2ccc3c(c2)OCO3)cs1` (stereo not given) gave RE007 growth inh inconclusive and 2A StopGo -5.0%.
For CC1(C(=O)NS(=O)(=O)c2cccc(F)c2)CCN1C(=O)c1cccc2ccccc12 (stereo not given) the results were RE007 growth inh -1.7%[18.4 µM] and 2A StopGo -11.8%.
Cc1ccc(C)c(S(=O)(=O)Nc2ccc(C(=O)NCCCN(C)C)cc2)c1 was read as RE007 growth inh -0.1% and 2A StopGo 5.6%.
For COc1cccc(COC(=O)c2cc(S(=O)(=O)N3CCOCC3)ccc2Cl)c1OC the results were RE007 growth inh 3.8% and 2A StopGo -22.3%.
Screening Cc1noc(C)c1C(=O)N1CCC1(C)C(=O)NS(=O)(=O)c1ccc(C#N)cc1 (stereo not given) returned RE007 growth inh -1.3%[18.4 µM] and 2A StopGo -1.1%.
For CC1(C(=O)NS(=O)(=O)c2ccccc2Cl)CCN1C(=O)CC(c1ccccc1)c1ccccc1 (stereo not given) the results were RE007 growth inh 7.1% and 2A StopGo -21.0%.
Screening C[C@@H]1CN([C@H](C)CO)C(=O)c2cc(C#CC(C)(C)O)cnc2O[C@@H]1CN(C)C(=O)C1CC1 returned RE007 growth inh -22.0% and 2A StopGo -26.5%.
Screening CC(C)NC(=O)Nc1ccc2c(c1)C(=O)N([C@H](C)CO)C[C@H](C)[C@@H](CN(C)Cc1ccc(C(F)(F)F)cc1)OCCCC[C@@H](C)O2 returned RE007 growth inh 6.4% and 2A StopGo -9.4%.
For CC(C)c1ccc(NC(=O)C2Cc3c(-c4ccc(Cl)cc4)ccnc3O2)cc1 (stereo not given) the results were RE007 growth inh -6.5% and 2A StopGo -25.4%.
Screening Cc1cccc(C)c1NC(=O)C1(C)CN(S(C)(=O)=O)CC(=O)N1CCc1ccc(O)cc1 (stereo not given) returned RE007 growth inh 0.0% and 2A StopGo -4.3%.
`COc1ccc(COC[C@H](C)[C@H](O)[C@@H](C)[C@H]2OC(=O)[C@@H]2C)cc1` gave RE007 growth inh -7.2% and 2A StopGo -2.1%.
Screening CN1CCN(S(=O)(=O)c2cccc(C(=O)N(C)CC(=O)Nc3ccc(Cl)c(Cl)c3)c2)CC1 returned RE007 growth inh 2.4% and 2A StopGo inconclusive.
For CN(C)CCNC(=O)c1onc(CSc2ccncc2)c1C(=O)NCCN(C)C the results were RE007 growth inh -8.4% and 2A StopGo -6.7%.
COc1ccc(CCNC(=O)c2cc3cc(Cl)ccc3nc2N)cc1OC was read as RE007 growth inh -27.0% and 2A StopGo inconclusive.
Cc1nc(N)sc1-c1csc(Nc2cc(N(C)C)ccc2Cl)n1 was read as RE007 growth inh -1.0% and 2A StopGo -9.2%.
For Cc1ccc(Cc2nc3ccccc3n2C(CCc2ccccc2)c2nc3ccccc3[nH]2)cc1 (stereo not given) the results were RE007 growth inh -13.3% and 2A StopGo -12.8%.
For O=C(NCCO)c1ccc(-c2ccc3nncn3c2)cc1 the results were RE007 growth inh 8.5%[18.4 µM] and 2A StopGo -3.1%.
`CCCCn1nnnc1C(c1cc2ccccc2o1)N(C)Cc1ccc(Cl)c(Cl)c1` (stereo not given) gave RE007 growth inh -9.4% and 2A StopGo -22.0%.
COc1cc(CN2C[C@@H](CO)O[C@@H](n3cnc4c(NC5CCC5)ncnc43)C2)cc(OC)c1OC was read as RE007 growth inh 3.7% and 2A StopGo -6.6%.
CCNC(=S)Nc1ccc2c(c1)c(=O)n(C)n2Cc1cccc(C(F)(F)F)c1 was read as RE007 growth inh -1.2%[18.4 µM] and 2A StopGo -14.2%.
COc1ccc(-n2nnnc2C(c2cccs2)N2CCN(C/C=C/c3ccccc3)CC2)cc1 (stereo not given) was read as RE007 growth inh -14.9% and 2A StopGo -22.8%.
For COc1cccc(-c2cnc(C(O)c3cc(F)cc(Cl)c3)[nH]2)c1 (stereo not given) the results were RE007 growth inh 3.4% and 2A StopGo 34.7%[activator].
CC1(C(=O)NS(=O)(=O)C2CC2)CCCN(C(=O)c2c(F)cccc2F)C1 (stereo not given) was read as RE007 growth inh 12.1% and 2A StopGo 2.7%.
For CC1=C(C(=O)N2CCOCC2)CC(CC(=O)NCCCN(C)C)C(=O)N1Cc1ccc(F)cc1 (stereo not given) the results were RE007 growth inh 8.4% and 2A StopGo -10.6%.
`CC(c1nc2ccccc2[nH]1)N(C(=O)C1=NNC(=O)CC1)c1ccccc1` (stereo not given) gave RE007 growth inh -4.5% and 2A StopGo -13.6%.
For CC1(C(=O)O)CCCN1C(=O)c1cc2ccccc2s1 (stereo not given) the results were RE007 growth inh 3.1% and 2A StopGo 3.9%.
Screening CCCC[C@@H]1Cc2[nH][nH]c(=O)c2[C@@H](c2ccc(Cl)cc2)O1 returned RE007 growth inh -5.5% and 2A StopGo -8.4%.
CCC(=O)N1CCC1(C)C(=O)Nc1ccc2nc(C)ccc2c1 (stereo not given) was read as RE007 growth inh -3.2%[18.4 µM] and 2A StopGo -5.0%.
CN1OC[C@@H]2CN(C(=O)CCc3ccccc3)[C@H](c3cccc(-c4ccc(C#N)cc4)c3)C[C@@H]21 was read as RE007 growth inh -4.6% and 2A StopGo inconclusive.
For C=CCN(CC=C)C(=O)C1c2ccccc2Oc2ccccc21 the results were RE007 growth inh 1.1% and 2A StopGo -24.3%.
Screening CC1(C(=O)NCc2ccc(C(F)(F)F)cc2)CCN1Cc1ccc(-c2ccccc2)o1 (stereo not given) returned RE007 growth inh 8.4% and 2A StopGo -26.1%.
For COc1ccccc1Cc1c(-c2ccc(C#N)cc2)nc2c3ccccc3ccn12 the results were RE007 growth inh 1.7% and 2A StopGo -22.3%.
CC1CCCC(NC(=O)c2cccc(S(=O)(=O)N3CCOCC3)c2)C1C (stereo not given) was read as RE007 growth inh -9.1% and 2A StopGo -12.2%.
`CC1(C(=O)NCc2cccc3ccccc23)CCN1Cc1ccc(-c2ccccc2)o1` (stereo not given) gave RE007 growth inh -5.8% and 2A StopGo -24.0%.
C[C@H]1NC(=O)[C@]2(C)[C@@H](c3ccccc3)[C@H]3COc4ccccc4[C@H]3N2C1=O was read as RE007 growth inh 5.8% and 2A StopGo -7.1%.
`FC(F)(F)c1ccc(-c2cccc3c2C2CC3CCN2C(=S)NCCc2ccccc2)cc1` (stereo not given) gave RE007 growth inh 17.0% and 2A StopGo 26.2%.
For C[C@@H]1CN([C@@H](C)CO)C(=O)CCCn2nncc2CO[C@H]1CN(C)S(=O)(=O)c1ccc2c(c1)OCCCO2 the results were RE007 growth inh 16.0% and 2A StopGo -8.1%.
Screening Cc1cc2nc(-c3ccc(F)cc3)c(CC(C)(C)C)n2c(C)c1Br returned RE007 growth inh 11.6% and 2A StopGo -19.2%.
Screening O=C(CN1CCN(S(=O)(=O)c2ccc3c(c2)OCCCO3)CC1)N1CCc2ccccc21 returned RE007 growth inh -11.4% and 2A StopGo -22.0%.
For COCCNC(=O)C1(C)CCCN(Cc2cc(-c3ccccc3)on2)C1 (stereo not given) the results were RE007 growth inh -9.1% and 2A StopGo -3.4%.
For CC1(C(=O)Nc2ccc3c(c2)OCCO3)CSCC(=O)N1CCc1ccccc1F (stereo not given) the results were RE007 growth inh 0.0% and 2A StopGo 12.7%.
COc1ccc(/C=C2\SC(=Nc3ccccc3Cl)NC2=O)c(OC)c1 was read as RE007 growth inh -3.5% and 2A StopGo -14.5%.
COC(=O)c1ccc(CNC(=O)COC(=O)/C=C/c2cccc(OC)c2)cc1 was read as RE007 growth inh -6.0% and 2A StopGo -17.5%.
Screening C=C1C(=O)[C@]23C[C@H]1CC[C@H]2[C@]1(C)[C@@H](OC(C)=O)CC[C@@](C)(C(=O)O)[C@H]1C[C@@H]3OC(C)=O returned RE007 growth inh -10.6% and 2A StopGo inconclusive.
Screening Cc1noc(C)c1C(=O)OC(C)C(=O)c1c[nH]c2ccccc12 (stereo not given) returned RE007 growth inh 0.6% and 2A StopGo -11.4%.
CCOC(=O)c1ccc(S(=O)(=O)N2CCC(N3CCCCCC3)CC2)cc1 was read as RE007 growth inh -11.3% and 2A StopGo -0.9%.
Screening C[C@H](CO)N1C[C@H](C)[C@@H](CN(C)Cc2cccc(C(=O)O)c2)Oc2cc(Br)ccc2S1(=O)=O returned RE007 growth inh 2.5% and 2A StopGo -2.1%.
`CC(=O)Nc1cc(-c2ccccc2CN(C)C)cn2c(-c3ccc(C(C)=O)cc3)cnc12` gave RE007 growth inh -10.2%[18.4 µM] and 2A StopGo -5.7%.
For C(=C\c1sc(Nc2ccccc2)n[n+]1-c1ccccc1)/c1ccccc1 the results were RE007 growth inh -3.6% and 2A StopGo 6.31µM*.
COc1cccc(NC(=O)C2(C)CCN2CC2CCCCC2)c1 (stereo not given) was read as RE007 growth inh -1.5% and 2A StopGo -11.4%.
For CCCNC(=O)C1(C)CCCN(Cc2cccs2)C1 (stereo not given) the results were RE007 growth inh 13.0% and 2A StopGo -13.6%.
`CC(=O)NCCNc1nc2cc(-c3cccc(C(F)(F)F)c3)sc2c(=O)n1C` gave RE007 growth inh -0.6% and 2A StopGo inconclusive.
Cc1cccc(S(=O)(=O)N(C)C[C@H]2OCc3cn(nn3)CCCC(=O)N([C@@H](C)CO)C[C@@H]2C)c1 was read as RE007 growth inh -32.7% and 2A StopGo -20.9%.
`COc1cccc(CN(C)C(=O)c2cc(S(=O)(=O)NC3CCCCC3)ccc2C)c1OC` gave RE007 growth inh 3.8% and 2A StopGo 12.4%.

Source: PubChem BioAssay (National Center for Advancing Translational Sciences (NCATS))
